PKD1 kinase inh = inhibitors of human PKD1 kinase. Q15139. 200,000 tested, 0.056% active. inhibition, %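 (about 10 µM by stock and volumes)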. PKD1 kinase fluorescence polarization assay;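 active = inhibition of 50% or more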;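 also: controls were vehicle for no effect and a reference inhibitor for full effect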
INS promoter inh = TRM-6 insulin promoter activity inhibition; TRM-6 cells (human fetal islet line), insulin promoter-eGFP reporter, imaging; reporter expression induced with tamoxifen; AID 1273; 130,000 tested, 0.9% active; inhibition, % at 2 µM;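 active = inhibition above the mean plus 3 SD, with well images judged a real hit on visual review, cut at about 60% in these data, passing the limit was not always enough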
GALR2 agonist = agonists of human galanin receptor 2 (GALR2); O43603; GALR2-expressing cells, agonist activation read-out; activation, %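 (tested at 5 µM)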; 140,000 tested, 0.48% active; AID 803;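 active = above mean plus 3 SD of all compounds, about 5% in these data, not always enough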;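 also: 0% = vehicle buffer wells and 100% = reference agonist at full effect; tested in CHO reporter cells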
Target sequence (O43603 whole entry, looked up): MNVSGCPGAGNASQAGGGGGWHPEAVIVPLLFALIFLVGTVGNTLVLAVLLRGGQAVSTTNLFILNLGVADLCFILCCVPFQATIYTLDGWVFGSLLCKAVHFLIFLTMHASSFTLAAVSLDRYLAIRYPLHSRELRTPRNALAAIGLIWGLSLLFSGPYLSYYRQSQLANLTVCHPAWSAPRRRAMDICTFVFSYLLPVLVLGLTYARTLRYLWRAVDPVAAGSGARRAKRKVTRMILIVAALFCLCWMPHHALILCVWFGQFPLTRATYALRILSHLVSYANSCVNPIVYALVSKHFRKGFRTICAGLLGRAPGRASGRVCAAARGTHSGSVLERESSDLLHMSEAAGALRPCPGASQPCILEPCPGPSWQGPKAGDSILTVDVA
HSV augment = HSV replication enhancement. HSV replication augmentation in cells, fold increase. maximum fold increase. 220,000 tested, 0.005% active;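 active = peak rise of 1.5-fold or more in the series; tested in PC3 cells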;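 also: first round at 10 µM; read as green reporter fluorescence; hits show the peak of a series up to 25 µM; 1 = signal of infected wells without compound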
RGS16-Gao = regulators of human RGS16-Galphao interaction; O15492+P09471; bead-based flow cytometry RGS16-Galphao binding, fluorescence; actives lie on both sides; binding response (% of control), % at 10 µM; 220,000 tested, 0.38% active; AID 1441;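 active = below 25% or above 175%, edge rows of some plates excepted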;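 also: Galphao activated by GDP with aluminum fluoride before binding; 100% = wells without compound and 0% = beads without RGS; some results beyond the cut were filed as inactive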
INS promoter inh cell count = recorded beside INS promoter inh, whose call it bears; normalized cell count, %; measured here: cell count, toxicity; reference of the scale not given here;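 cells exposed to compound for 48 h; stained nuclei by imaging scaled within each plate; lower means fewer cells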
HSV augment primary fold = second read-out of HSV augment, no call of its own (marks repeat the call); fold increase; compound at 10 µM; measured here: primary screen fold increase 10 uM; tested in PC3 cells;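 GFP signal in the first replicate; 1 = infected wells without compound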
Numbers without * were called inactive; i = inactive; . = not tested or not shown. Rows were taken by chance, and some 1.3% of all compounds hit somewhere here.

SMILES | PKD1 kinase inh | INS promoter inh | INS promoter inh cell count | GALR2 agonist | HSV augment | HSV augment primary fold | RGS16-Gao
CN(Cc1ccccc1)C(=O)COC(=O)c1ccc2c(c1)OCO2 | -14 | 4 | 104 | -2.4 | i | 0.94 | 40
COc1ccc(/C=C/C(=O)OCC(=O)c2ccc3c(c2)NC(=O)CO3)c(OC)c1 | . | . | . | . | i | 0.98 | 110
COc1ccc(C(=O)NC(=S)NC(C)C)cc1Br | 4 | 15 | 119 | -1.7 | i | 0.82 | 100
COc1ccc(OC)c(-n2c(SCC(=O)N3CCc4ccccc43)nc3c(c2=O)SCC3)c1 | -19 | 70* | 62* | -0.9 | i | 0.92 | 101
OC(c1ccccn1)(c1ccccn1)c1ccccn1 | 6 | -54 | 71 | -3.5 | i | 0.99 | 158

Three compounds from above, sorted by their value in HSV augment primary fold, low to high:
| smiles | HSV augment primary fold |
| --- | --- |
| COc1ccc(C(=O)NC(=S)NC(C)C)cc1Br | 0.82 |
| COc1ccc(OC)c(-n2c(SCC(=O)N3CCc4ccccc43)nc3c(c2=O)SCC3)c1 | 0.92 |
| CN(Cc1ccccc1)C(=O)COC(=O)c1ccc2c(c1)OCO2 | 0.94 |

Arranged by number of heavy atoms (smallest number first): 3 of the compounds above
SMILES | PKD1 kinase inh | INS promoter inh | INS promoter inh cell count | GALR2 agonist | HSV augment | HSV augment primary fold | RGS16-Gao
COc1ccc(C(=O)NC(=S)NC(C)C)cc1Br | 4 | 15 | 119 | -1.7 | i | 0.82 | 100
OC(c1ccccn1)(c1ccccn1)c1ccccn1 | 6 | -54 | 71 | -3.5 | i | 0.99 | 158
COc1ccc(OC)c(-n2c(SCC(=O)N3CCc4ccccc43)nc3c(c2=O)SCC3)c1 | -19 | 70* | 62* | -0.9 | i | 0.92 | 101

Screening data: PubChem BioAssay, several laboratories
